Assay outcomes deposited in PubChem by National Center for Advancing Translational Sciences (NCATS).
NPR1 antag: Natriuretic polypeptide receptor (hNpr1) antagonism - Primary qHTS | Atrial natriuretic peptide receptor 1 (Homo sapiens), P16066 | HEK293 hNpr1 GloSensor cGMP, ANP-stimulated luminescence | Potency, µM (highest dose often 46.3 µM), without a hit: at the top dose activity change, negative = inhibition, usual class: inhibitors | 76,000 compounds, 1.6% hits; active = well fitted inhibition curve with a large enough effect; inconclusive = small, poorly fitted or top-dose-only effect; inactive = no such curve, though single readings can be large or run the other way;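 further: nearly all actives have a fitted effect of over 60% in size; nearly all hits also lower the signal before the agonist is added; a reference antagonist and vehicle were the controls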
Target sequence (P16066 whole entry, looked up): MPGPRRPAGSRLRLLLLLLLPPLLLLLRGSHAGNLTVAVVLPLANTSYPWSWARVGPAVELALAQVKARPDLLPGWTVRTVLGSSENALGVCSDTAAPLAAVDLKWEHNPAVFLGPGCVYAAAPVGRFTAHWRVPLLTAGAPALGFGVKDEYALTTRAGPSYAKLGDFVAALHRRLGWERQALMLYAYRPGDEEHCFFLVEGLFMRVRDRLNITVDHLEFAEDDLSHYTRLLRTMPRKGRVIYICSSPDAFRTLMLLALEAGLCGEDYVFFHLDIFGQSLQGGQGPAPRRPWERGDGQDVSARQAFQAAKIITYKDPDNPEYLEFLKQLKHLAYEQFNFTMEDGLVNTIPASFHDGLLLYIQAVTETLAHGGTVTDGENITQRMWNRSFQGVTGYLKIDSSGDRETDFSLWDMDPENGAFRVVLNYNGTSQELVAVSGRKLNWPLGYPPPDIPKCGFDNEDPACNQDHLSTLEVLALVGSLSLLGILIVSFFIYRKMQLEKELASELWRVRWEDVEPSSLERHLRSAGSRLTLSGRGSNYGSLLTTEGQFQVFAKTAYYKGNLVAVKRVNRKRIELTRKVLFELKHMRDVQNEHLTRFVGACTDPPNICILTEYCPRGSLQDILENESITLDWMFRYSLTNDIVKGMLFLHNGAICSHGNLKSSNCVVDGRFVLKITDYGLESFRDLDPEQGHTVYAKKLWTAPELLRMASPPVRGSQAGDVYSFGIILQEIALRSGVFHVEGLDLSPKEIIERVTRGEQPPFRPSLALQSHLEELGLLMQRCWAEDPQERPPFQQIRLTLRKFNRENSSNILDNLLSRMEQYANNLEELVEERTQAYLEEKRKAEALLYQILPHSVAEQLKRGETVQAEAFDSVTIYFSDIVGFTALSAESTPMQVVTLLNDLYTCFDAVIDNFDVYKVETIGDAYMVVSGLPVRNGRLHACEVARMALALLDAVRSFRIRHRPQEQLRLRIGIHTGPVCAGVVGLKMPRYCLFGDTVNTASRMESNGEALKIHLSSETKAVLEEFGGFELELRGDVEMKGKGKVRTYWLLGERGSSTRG
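HEK293 cells stably expressing human Npr1 and cGMP GloSensor pGS-40F, loaded 2 h with 2% GloSensor reagent, given compound 30 min at room temperature. Luminescence read before and 20 min after 0.1 nM hNppA.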
* hit, by the source's call; ? = inconclusive; [ ] = remark or other dose. On the % scale 0 is the no-effect control and ±100 the full control effect; potency means the concentration at half of the fitted maximal effect. Not all compounds are listed; rates above refer to the full screens.

The first 6 entries (preview)
molecule	NPR1 antag
O=C(NC[C@H]1C[C@@H]2CCN1C[C@@H]2CN1CCN(c2ccc(F)cc2)CC1)c1ccco1	7%[70.6 µM]
Cc1ncc2c(n1)C[C@@H]1CC[C@H]2N1C(=O)c1ccsc1	1%
CCc1cnc(N2CCC3(CC2)C(=O)Nc2cc(OCC4CC4)c(OC)cc23)nc1	7%[70.6 µM]
CC1=NOC2(CCN(Cc3cccnc3)C2)C1 (configuration not stated)	-20%[70.6 µM]
C#C[C@H]1CN2CC[C@H]1C[C@@H]2CNS(=O)(=O)c1ccc2ccccc2c1	-1%[70.6 µM]
COCC1CN(C)CC12CCN(C(=O)c1cncc(C)c1)CC2 (configuration not stated)	-13%

Results, from the first entry:
molecule	NPR1 antag
O=C(NC[C@H]1C[C@@H]2CCN1C[C@@H]2CN1CCN(c2ccc(F)cc2)CC1)c1ccco1	7%[70.6 µM]
Cc1ncc2c(n1)C[C@@H]1CC[C@H]2N1C(=O)c1ccsc1	1%
CCc1cnc(N2CCC3(CC2)C(=O)Nc2cc(OCC4CC4)c(OC)cc23)nc1	7%[70.6 µM]
CC1=NOC2(CCN(Cc3cccnc3)C2)C1 (configuration not stated)	-20%[70.6 µM]
C#C[C@H]1CN2CC[C@H]1C[C@@H]2CNS(=O)(=O)c1ccc2ccccc2c1	-1%[70.6 µM]
COCC1CN(C)CC12CCN(C(=O)c1cncc(C)c1)CC2 (configuration not stated)	-13%
COCCN1C[C@@H]2CN(C(=O)c3cnc[nH]c3=O)C[C@]2(C(=O)O)C1	-2%
COc1ccccc1CNC(=O)[C@H]1CN2CC[C@H]1C[C@@H]2Cn1cc(CCO)nn1	-1%[70.6 µM]
Nc1cncc(-c2ccc(CN3CCCC3)cn2)c1	4%
COc1ccc(-c2cc([C@H]3CN4CC[C@H]3C[C@@H]4CNC(=O)COc3ccccc3)n(C)n2)cc1	-26%
CNCc1cn(C[C@H]2CC3CCN2C[C@@H]3C(=O)NC2CC2)nn1 (some centres not stated)	3%[70.6 µM]
CCCS(=O)(=O)Nc1ccc2n(c1=O)C[C@H]1C[C@@H]2CN(Cc2cn(C)c3ccccc23)C1	-16%
Cc1nc(-c2cccs2)cc([C@H]2CN3CC[C@H]2C[C@@H]3CNC(=O)c2ccco2)n1	-11%[70.6 µM]
O=C(Nc1ccccc1)N1C[C@@H]2C[C@H](C1)c1c(-c3cncnc3)ccc(=O)n1C2	-4%[70.6 µM]
CN(C)Cc1cn(C[C@H]2C[C@@H]3CCN2C[C@@H]3C(=O)Nc2ccccc2)nn1	3%[70.6 µM]
O=C(Nc1ccc2n(c1=O)C[C@H]1C[C@@H]2CN(C(=O)c2ccccn2)C1)c1ccc(F)cc1	2%[70.6 µM]
Cc1ncc2c(n1)C[C@@H]1CC[C@H]2N1C(=O)NCc1ccccc1	4%
Cn1nc(-c2ccccc2)cc1[C@H]1CN2CC[C@H]1C[C@@H]2CNC(=O)Nc1cccc(C#N)c1	5%
C=C[C@H]1CN2CC[C@H]1C[C@@H]2CNCc1ccc(C(C)C)cc1	-3%[70.6 µM]
COc1cc2c(cc1CCc1ccccc1)N(C(=O)c1ccn(C)n1)CC21CCN(C(C)=O)CC1	0%
CC[C@H]1CN2CC[C@H]1C[C@@H]2CNCc1cccc(C#N)c1	2%[70.6 µM]
COc1cc2c(cc1OC1CCCC1)NC(=O)C21CCN(Cc2cccnc2)CC1	-8%[70.6 µM]
COc1ccc(CCC(=O)N2[C@H]3CC[C@@H]2c2cnc(C)nc2C3)cc1	11%
COc1ccc(C(=O)NC[C@H]2C[C@@H]3CCN2C[C@@H]3c2cc(-c3cccs3)nn2C)cc1	-3%
CCNC(=O)NC[C@H]1C[C@@H]2CCN1C[C@@H]2c1cc(-c2ccccc2)nn1C	5%[70.6 µM]
CC1=NOC2(CCN(Cc3cc(C)on3)C2)C1 (configuration not stated)	19%[70.6 µM]
CC(C)NC(=O)[C@H]1CN2CC[C@H]1C[C@@H]2Cn1cc(-c2ccccn2)nn1	1%[70.6 µM]
Cn1cc(-c2cnc3[nH]cc(CC(=O)N4CCN(Cc5ccccc5)CC4)c3c2)cn1	-8%[70.6 µM]
O=C1OCC2(CCN(Cc3ccn[nH]3)C2)N1c1ccncc1 (configuration not stated)	4%[70.6 µM]
COC1C(=O)N(CC2CC2)C12CCNCC2 (configuration not stated)	-9%
CC(=O)N1C[C@@H]2C[C@H](C1)c1ccc(NC(=O)Nc3cccc(C#N)c3)c(=O)n1C2	-1%[70.6 µM]
O=C(NC1CCCCC1)[C@H]1CN2CCC1C[C@@H]2Cn1cc(CSc2ccccc2)nn1 (some centres not stated)	0%
O=C(NC[C@H]1C[C@@H]2CCN1C[C@@H]2CN1CCCCC1)Nc1ccsc1	5%[70.6 µM]
O=C(O)[C@]12CN(Cc3ccncc3)C[C@H]1CN(C1CCOCC1)C2	1%
COc1ccc(NC(=O)N2[C@H]3CC[C@@H]2c2cnc(-c4ccc(F)cc4)nc2C3)c(OC)c1	-2%
COc1cc2c(cc1OCc1ccncc1)NC(=O)C21CCN(c2nc(C)cc(C)n2)CC1	-20%
Cc1[nH]cnc1-c1nccn1CCc1c[nH]c(=O)[nH]c1=O	3%
Cc1ccc(NC(=O)N2[C@H]3CC[C@@H]2c2cncnc2C3)cc1F	-2%
COc1cc2c(cc1Oc1ccccc1)NC(=O)C21CCN(C(=O)C2CCN(C)CC2)CC1	4%
CC(C)CN1C[C@@H]2OCC(=O)N(CC(N)=O)[C@@H]2C1	3%[70.6 µM]
O=C(Cc1ccccc1Cl)N1CCN(C2CCN(CCc3ccccc3)C2=O)CC1 (configuration not stated)	3%
COc1ccc([C@H]2C[C@@H](O)[C@@H](O)[C@@H]2NCC(C)C)cc1	-1%[70.6 µM]
Cc1nc(-c2cccs2)cc([C@H]2CN3CC[C@H]2C[C@@H]3CNC(=O)c2ccc(C(F)(F)F)cc2)n1	-5%
COc1cc2c(cc1Oc1ccccc1)NC(=O)C21CCN(C(=O)c2scnc2C)CC1	-17%
Cn1cc(CN2CCN(C(=O)COc3ccccc3)CC2)ccc1=O	-1%
CS(=O)(=O)NC[C@H]1C[C@@H]2CCN1C[C@@H]2CN1C[C@@H]2C[C@H](C1)c1cccc(=O)n1C2	12%[70.6 µM]
O=C(Nc1ccccc1)[C@H]1CN2CCC1C[C@@H]2Cn1cc(C2(O)CCCCC2)nn1 (some centres not stated)	2%[70.6 µM]
COc1cc2c(cc1-c1ccc(N3CCN(C)CC3)nc1)NC(=O)C21CCN(C(C)=O)CC1	1%
O=C(O)CSCC(=O)N1C[C@@H]2C[C@H](C1)c1c(-c3ccccc3F)ccc(=O)n1C2	5%[70.6 µM]
Cc1ccc(C(=O)N2[C@H]3CC[C@@H]2c2cnc(C)nc2C3)cn1	11%

The list continues.
molecule	NPR1 antag
COc1ccccc1NC(=O)Nc1ccc2n(c1=O)C[C@H]1C[C@@H]2CN(C(=O)C(=O)O)C1	-1%[70.6 µM]
COc1cc2c(cc1OCc1ccccc1)N(C(=O)Cc1ccc3c(c1)OCO3)CC21CCN(C)CC1	7%
N#Cc1ccc(C(=O)N2C[C@@H]3C[C@H](C2)c2c(-c4ccc(Cl)cc4)ccc(=O)n2C3)cc1	5%[70.6 µM]
Cc1ncc2c(n1)C[C@@H]1CC[C@H]2N1C(=O)c1ccccc1F	4%
COc1cc2c(cc1-c1cccnc1)NC(=O)C21CCN(C(C)=O)CC1	8%[70.6 µM]
CC(C)NC(=O)NC[C@H]1C[C@@H]2CCN1C[C@@H]2c1cc(-c2ccc(F)cc2)nn1C	1%[70.6 µM]
Cn1ccnc1CN1CCN2C(=O)N(c3ccccn3)C[C@H]2C1	-1%[70.6 µM]
CC[C@H]1CN2CC[C@H]1C[C@@H]2COC(=O)Nc1cc(OC)cc(OC)c1	3%[70.6 µM]
COc1ccccc1CNC(=O)[C@H]1CN2CCC1C[C@@H]2Cn1cc(CN(C)Cc2ccccc2)nn1 (some centres not stated)	-2%
CNCc1cn(C[C@H]2CC3CCN2C[C@@H]3C(=O)NCc2ccc(F)cc2)nn1 (some centres not stated)	-3%[70.6 µM]
CN1CCN(C(=O)Cc2c[nH]c3ncc(-c4ccc(Cl)cc4)cc23)CC1	-15%[70.6 µM]
O=C1NCCCCCCN[C@H]2CCCC[C@@H]12	0%
COc1ccc(NC(=O)NC[C@H]2C[C@@H]3CCN2C[C@@H]3c2cc(-c3ccccc3Br)nc(C)n2)cc1	-5%
O=C(CCc1nc2ccccc2s1)N1[C@H]2CC[C@@H]1c1cnc(-c3ccc(F)cc3)nc1C2	0.71µM*
CCNC(=O)NC[C@H]1C[C@@H]2CCN1C[C@@H]2c1cc(-c2ccc(N(C)C)cc2)nc(C)n1	7%[70.6 µM]
N#Cc1cccc(NC(=O)NC[C@H]2C[C@@H]3CCN2C[C@@H]3CN2CCN(c3ncccn3)CC2)c1	-1%
CCC(CC)c1cc([C@H]2CN3CC[C@H]2C[C@@H]3CNC(C)=O)nc(-c2ccncc2)n1	?
O=C(c1ccccn1)N1C[C@@H]2C[C@H](C1)c1ccc(NS(=O)(=O)c3cccs3)c(=O)n1C2	1%
N#Cc1cccc(NC(=O)NC[C@H]2C[C@@H]3CCN2C[C@@H]3CN2CCCCC2)c1	4%[70.6 µM]
O=C1NCCCCCN[C@H]2CCCC[C@@H]12	1%
COCCNC(=O)[C@H]1CN2CCC1C[C@@H]2Cn1cc(COC)nn1 (some centres not stated)	-1%[70.6 µM]
O=C(NC[C@H]1C[C@@H]2CCN1C[C@@H]2CN1CCCCC1)c1ccccc1	-1%[70.6 µM]
Cn1nc(-c2ccccc2)cc1[C@H]1CN2CC[C@H]1C[C@@H]2CNC(=O)c1cccs1	3%[70.6 µM]
Nc1cccc(-c2cn(C[C@H]3CC4CCN3C[C@@H]4C(=O)Nc3ccccc3)nn2)c1 (some centres not stated)	-7%[70.6 µM]
CN(C)c1ncc(CN2CCC3(CCNCC3)C2)cn1	0%

Six structures from above, arranged by count of non-hydrogen atoms, high to low:
molecule	NPR1 antag
N#Cc1cccc(NC(=O)NC[C@H]2C[C@@H]3CCN2C[C@@H]3CN2CCN(c3ncccn3)CC2)c1	-1%
O=C(CCc1nc2ccccc2s1)N1[C@H]2CC[C@@H]1c1cnc(-c3ccc(F)cc3)nc1C2	0.71µM*
N#Cc1ccc(C(=O)N2C[C@@H]3C[C@H](C2)c2c(-c4ccc(Cl)cc4)ccc(=O)n2C3)cc1	5%[70.6 µM]
CN1CCN(C(=O)Cc2c[nH]c3ncc(-c4ccc(Cl)cc4)cc23)CC1	-15%[70.6 µM]
O=C(NC[C@H]1C[C@@H]2CCN1C[C@@H]2CN1CCCCC1)c1ccccc1	-1%[70.6 µM]
Cn1ccnc1CN1CCN2C(=O)N(c3ccccn3)C[C@H]2C1	-1%[70.6 µM]

Two entries from above in another layout:
COc1ccc(CCC(=O)N2[C@H]3CC[C@@H]2c2cnc(C)nc2C3)cc1
  NPR1 antag: 11%
Cn1cc(-c2cnc3[nH]cc(CC(=O)N4CCN(Cc5ccccc5)CC4)c3c2)cn1
  NPR1 antag: -8%[70.6 µM]

More results.
molecule	NPR1 antag
COc1ccc(-c2cc([C@H]3CN4CC[C@H]3C[C@@H]4CNC(=O)c3ccc(C(C)(C)C)cc3)n(C)n2)cc1OC	1%
CCCNC(=O)OC[C@H]1C[C@@H]2CCN1C[C@@H]2c1cc(-c2ccccc2OC)nc(C)n1	5%[70.6 µM]
O=C(NC[C@H]1C[C@@H]2CCN1C[C@@H]2CN1CCN(c2ccccn2)CC1)Nc1ccsc1	-1%
COc1cc2c(cc1CCc1ccccc1)N(C(=O)c1ccnn1C)CC21CCN(C(C)=O)CC1	2%
O=C(NCc1ccccc1)[C@H]1CN2CC[C@H]1C[C@@H]2Cn1cc(-c2ccccn2)nn1	4%[70.6 µM]
CN(Cc1ccccc1)C[C@H]1CN2CC[C@H]1C[C@@H]2CNC(=O)c1ccc(C(F)(F)F)cc1	-6%
O=C(Cc1ccc(F)cc1)N1CCC2(CC1)NCc1ccccc1-n1ccnc12	-3%
Cc1noc(C)c1-c1cnc2[nH]cc(CC(=O)N3CCN(C)CC3)c2c1	-3%[70.6 µM]
CC(C)CN1Cc2ccccc2-n2ccnc2C12CCN(C(=O)c1ccco1)CC2	-15%
CCC1(N2CCN(C(=O)COc3ccc(Cl)cc3C)CC2)CCN(C(=O)NC)C1 (configuration not stated)	0%
COc1ccc([C@@H]2CN(C(=O)c3c(C)noc3C)[C@@H]3C4CCN(CC4)[C@@H]32)cc1	1%
CCCN1CC2(CCN(C)CC2)CC1C(=O)N(C)Cc1ccon1 (configuration not stated)	1%
COc1cc2c(cc1OC1CCCC1)NC(=O)C21CCN(Cc2nccn2C)CC1	6%[70.6 µM]
Cc1nc(-c2ccc(N(C)C)cc2)cc([C@H]2CN3CC[C@H]2C[C@@H]3CNC(=O)C(C)(C)C)n1	1%[70.6 µM]
